Source: PubChem (Broad Institute)
DUX4 inh – DUX4-mediated transcription inhibition; 293T-iDUX4 ZSCAN4-Gaussia luciferase reporter, 24 h; active compounds read low; activity change, negative = inhibition, % (concentration not given with the values); 0.8% of 37,000 active;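 active = -10% or lower and over 25 points stronger than a control reporter; inconclusive = -10% or lower with a smaller gap; inactive = above -10%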;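 note: 0% = median of neutral control wells and -100% = median of positive control wells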
DUX4 inh difference – recorded beside DUX4 inh, whose call it bears; Gaussia minus Italica difference, %; measured here: selective DUX4 reporter inhibition;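 worked out from the two reporters; negative = selective loss of the DUX4 reporter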
DUX4 inh control – recorded beside DUX4 inh, whose call it bears; activity change, negative = inhibition, %; measured here: Italica tet-on control reporter;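 0 = neutral control and -100 = positive control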
Active calls of the source: *; ? = inconclusive; . = no result given.

Value order: DUX4 inh control, DUX4 inh difference, DUX4 inh
#1 C/C=C/c1ccc([C@@H]2[C@@H](CO)N(C(=O)CN3CCOCC3)[C@H]2C#N)cc1
  3.1, -2, 1
#2 CN1CCN(C(=O)c2cc3c(c(-c4cccc(-c5cccc(F)c5)c4)n2)[C@H](CCO)N(S(=O)C(C)(C)C)C3)CC1 (some centres not stated)
  -1.7, 5, 4
#3 N#Cc1ccc(-c2ccc3c(c2)[C@H]2[C@H](CCN2S(=O)(=O)c2cccc(F)c2)[C@@H](CO)N3)cc1
  ., ., ?
#4 O=C(C[C@H]1CC[C@H]2NC[C@H](O)COC[C@@H]2O1)NCCc1ccncc1
  9.4, -5, 4
#5 CCCNC(=O)[C@H]1[C@H](CO)[C@H]2Cn3c(ccc(-c4ccc(OC)cc4)c3=O)[C@H]2N1CC
  -2.4, 4, 2
#6 C[C@@H]1CN([C@@H](C)CO)C(=O)c2c(c3ccccc3n2C)-c2ccccc2CO[C@@H]1CN(C)Cc1ccc2c(c1)OCCN2C
  2.2, -4, -2
#7 CN(C)C(=O)[C@H]1[C@H](CO)[C@H]2Cn3c(ccc(-c4ccccc4F)c3=O)[C@@H]1N2C(=O)c1ccncc1
  -0.8, 0, 0
#8 C[C@@H]1CCCCO[C@H](CN(C)C(=O)Cc2ccccc2)[C@@H](C)CN([C@H](C)CO)C(=O)c2cc(N(C)C)ccc2O1
  4.2, -5, -1
#9 COc1cccc(-c2ccc([C@H]3[C@@H](CO)N4CCCCN(C(=O)c5ccc6c(c5)OCO6)C[C@@H]34)cc2)c1
  ., ., ?
#10 CN1CCN(C(=O)C[C@H]2CC[C@H]3[C@H](COc4ccc(NC(=O)C5CCOCC5)cc4C(=O)N3C)O2)CC1
  -6.5, 10, 4
#11 C[C@H](CO)N1C[C@H](C)[C@H](CN(C)C(=O)CC2CC2)Oc2cc(-c3cccnc3)ccc2S1(=O)=O
  5.1, -7, -2
#12 O=C(C[C@@H]1CC[C@H]2[C@@H](COC[C@@H](O)CN2Cc2ccccc2F)O1)N1CCc2ccccc2C1
  ., ., ?
#13 COc1ccc(NC(=O)N(C)C[C@@H]2OCCCC[C@H](C)Oc3ccc(NC(=O)CCCN(C)C)cc3C(=O)N([C@@H](C)CO)C[C@H]2C)cc1
  8.0, -14, -6
#14 CC(C)CC#Cc1ccc2c(c1)O[C@H](CN(C)C(=O)c1ccccc1F)[C@@H](C)CN([C@H](C)CO)S2(=O)=O
  1.5, 0, 2
#15 O=C(C[C@@H]1C=C[C@@H](NC(=O)Cc2ccccn2)[C@@H](CO)O1)NCCc1ccncc1
  -2.2, 2, -1
#16 C[C@@H]1CCCCO[C@H](CN(C)CC2CCCCC2)[C@H](C)CN([C@@H](C)CO)C(=O)c2cc(NC(=O)CCCCCC(=O)Nc3ccccc3N)ccc2O1
  3.2, 0, 3
#17 C[C@@H]1CN([C@H](C)CO)C(=O)c2c(c3ccccc3n2C)-c2ccccc2CO[C@@H]1CN(C)C(=O)[C@@H](Cc1ccccc1)N(C)C
  ., ., ?
#18 C[C@H](NC(=O)C[C@@H]1C[C@H]2c3cc(NC(=O)CN(C)C)ccc3O[C@H]2[C@@H](CO)O1)c1ccccc1
  8.7, 0, 9
#19 O=S(=O)(c1ccc(F)cc1)N1CC[C@H]2[C@H](CO)Nc3ccc(-c4ccc(F)cc4)cc3[C@H]21
  ., ., ?
#20 CCCC#Cc1cnc2c(c1)C(=O)N([C@H](C)CO)C[C@@H](C)[C@@H](CN(C)S(=O)(=O)c1cccc(OC)c1)O2
  2.8, -6, -3
#21 CO[C@@H]1CN(C)C(=O)c2cc(NC(=O)c3ccc(F)cc3)ccc2OC[C@@H](C)NC[C@@H]1C
  2.8, -3, 0
#22 C[C@H](CO)N1C[C@H](C)[C@H](CN(C)S(=O)(=O)c2cn(C)cn2)Oc2cc(C3=CCCCC3)ccc2S1(=O)=O
  -2.0, -2, -4
#23 COc1ccc2c3c(n(C)c2c1)[C@H](CO)N(Cc1ccc(Cl)cc1)CC31CCN(CC2CC2)CC1
  ., ., ?
#24 C[C@H]1COCc2cn(nn2)CC[C@@H](Cc2ccccc2)C(=O)N1
  0.7, 2, 2
#25 COCCN(C[C@@H]1[C@@H](c2ccccc2)[C@H](CO)N1C(C)=O)C(=O)c1ccncc1
  1.5, 3, 4
#26 COc1ccc2c3c(n(C)c2c1)[C@@H](CO)N(C)CC31CN(C(=O)c2ccc3c(c2)OCO3)C1
  ., ., ?
#27 C[C@H](CO)N1C[C@H](C)[C@H](CN(C)Cc2ccc(-c3ccccc3)cc2)Oc2c(NC(=O)Nc3ccc(F)cc3)cccc2C1=O
  2.6, 0, 3
#28 CS(=O)(=O)N1[C@@H](C#N)[C@H](c2ccc(C#CC3CC3)cc2)[C@@H]1CO
  1.7, -6, -4
#29 CN(C)CC(=O)N1CC2(C1)[C@H](c1ccccc1)[C@H](CO)N2C(=O)C1CCC1
  12, -10, 2
#30 O=C(C1CC1)N1CC[C@@H]2[C@H]1c1cc(Br)ccc1N[C@@H]2CO
  ., ., ?

Exported with each value named: entries from further up.
29) CN(C)CC(=O)N1CC2(C1)[C@H](c1ccccc1)[C@H](CO)N2C(=O)C1CCC1
  DUX4 inh control = 12; DUX4 inh difference = -10; DUX4 inh = 2

14) CC(C)CC#Cc1ccc2c(c1)O[C@H](CN(C)C(=O)c1ccccc1F)[C@@H](C)CN([C@H](C)CO)S2(=O)=O
  DUX4 inh control = 1.5; DUX4 inh difference = 0; DUX4 inh = 2

6) C[C@@H]1CN([C@@H](C)CO)C(=O)c2c(c3ccccc3n2C)-c2ccccc2CO[C@@H]1CN(C)Cc1ccc2c(c1)OCCN2C
  DUX4 inh control = 2.2; DUX4 inh difference = -4; DUX4 inh = -2

30) O=C(C1CC1)N1CC[C@@H]2[C@H]1c1cc(Br)ccc1N[C@@H]2CO
  DUX4 inh control = .; DUX4 inh difference = .; DUX4 inh = ?

The results go on.
Value order: DUX4 inh control, DUX4 inh difference, DUX4 inh
#31 Cc1ccc(S(=O)(=O)Nc2cccc3c2O[C@H](CN(C)Cc2ccncc2)[C@@H](C)CN([C@H](C)CO)C3=O)cc1
  1.2, -2, -1
#32 COCC(=O)N1CCCCN2[C@H](CO)[C@H](c3ccc(C#Cc4ccccc4)cc3)[C@@H]2C1
  -7.3, 5, -3
#33 COc1cccc(NC(=O)N(C)C[C@H]2Oc3cc(-c4cccc(C(=O)N(C)C)c4)ccc3S(=O)(=O)N([C@@H](C)CO)C[C@H]2C)c1
  5.2, -6, 0
#34 C[C@@H]1CN([C@@H](C)CO)C(=O)c2cc(N(C)C)ccc2O[C@@H](C)CCCCO[C@H]1CN(C)C(=O)CCCN(C)C
  -12, 19, 7
#35 COCC(=O)N1[C@@H]2CN(C(=O)Nc3ccccc3Cl)c3ccccc3[C@@H]2[C@@H]1CO
  -0.7, 0, 0
#36 O=C(C[C@@H]1C[C@@H]2c3cc(NC(=O)c4ccc5c(c4)OCO5)ccc3O[C@@H]2[C@H](CO)O1)NC1CCCCC1
  2.2, 7, 9
#37 CC(=O)N1[C@@H](CO)[C@@H](c2ccccc2)[C@@H]1CN(C(=O)c1cccc(F)c1)C(C)C
  1.0, 2, 3
#38 CCS(=O)(=O)NCC[C@@H]1CC[C@@H](NC(=O)C2CCOCC2)[C@H](CO)O1
  4.6, -1, 4
#39 CCCNC(=O)N1CC[C@@H]2[C@@H](CO)N(C)c3ccc(C#Cc4ccccc4F)cc3[C@@H]21
  ., ., ?
#40 CNC[C@H]1OCCCC[C@@H](C)Oc2ccc(NS(=O)(=O)c3ccc(F)cc3)cc2C(=O)N([C@@H](C)CO)C[C@@H]1C
  -3.9, 0, -4
#41 CO[C@H]1CC[C@H]2CCN(C)C(=O)[C@@H](C)[C@H](OC)CN(C)C(=O)c3cccc(C#N)c3OC[C@H]1O2
  -2.4, -1, -3
#42 CN1c2ccc(C3=CCCCC3)cc2[C@@H]2[C@@H](CCN2C(=O)Nc2ccccc2F)[C@@H]1CO
  -31, 22, -9
#43 COc1ccc(NC(=O)Nc2ccc3c(c2)[C@H]2C[C@@H](CC(=O)N4CCN(C)CC4)O[C@H](CO)[C@H]2O3)cc1
  5.0, 1, 6
#44 O=C(C1CCC1)N1CC2(C1)[C@@H](c1ccccc1)[C@@H](CO)N2C(=O)c1ccccn1
  -0.5, 4, 4
#45 C[C@H](CO)N1C[C@H](C)[C@H](CN(C)C(=O)Nc2ccc(C(F)(F)F)cc2)Oc2ccc(NC(=O)NC3CCCCC3)cc2CC1=O
  1.1, 4, 5
#46 C[C@@H]1CN([C@@H](C)CO)C(=O)c2cccc(NS(=O)(=O)c3ccc(F)cc3)c2O[C@H]1CN(C)C(=O)NC1CCCCC1
  0.7, 1, 1
#47 CCN1[C@@H]2Cn3c(ccc(C4=CCCCC4)c3=O)[C@H]1[C@@H](C(=O)NCc1ccccn1)[C@@H]2CO
  -1.5, -1, -3
#48 C[C@@H]1CN([C@@H](C)CO)S(=O)(=O)c2ccc(C#CCN(C)C)cc2O[C@H]1CN(C)S(C)(=O)=O
  3.4, 0, 3
#49 O=C(c1ccccc1)N1CC(=O)N2[C@H](C1)[C@H](c1ccc(C#CC3CC3)cc1)[C@@H]2CO
  5.5, -1, 4
#50 CC(C)C#Cc1ccc([C@H]2[C@@H](C#N)N(C(=O)C3CC3)[C@@H]2CO)cc1
  1.7, -2, 0
#51 C[C@H](CO)N1C[C@H](C)[C@H](CN(C)C(=O)CCC(F)(F)F)OCCCC[C@H](C)Oc2ccc(NS(=O)(=O)c3cccs3)cc2C1=O
  0.9, -2, -1
#52 COc1ccc2c3c([nH]c2c1)[C@@H](CO)N(C(C)=O)CC31CCN(Cc2ccccc2Cl)CC1
  ., ., ?
#53 OC[C@@H]1[C@@H](c2ccc(-c3ccc(F)cc3)cc2)[C@H]2CN(Cc3ccncc3)CCCCN12
  -0.4, 15, 15
#54 N#Cc1ccc(-c2ccc3c(c2)[C@H]2[C@H](CCN2C(=O)C2CCCCC2)[C@H](CO)N3)cc1
  ., ., ?
#55 CO[C@H]1CN(C)C(=O)c2ccc(NS(=O)(=O)c3c(C)noc3C)cc2OC[C@H](C)NC[C@H]1C
  2.8, -7, -4
#56 C[C@@H]1CCCCO[C@@H](CN(C)C(=O)CCC(F)(F)F)[C@H](C)CN([C@@H](C)CO)C(=O)c2cc(NS(=O)(=O)c3cccs3)ccc2O1
  -2.5, 4, 1
#57 CC(C)(C)[S@@](=O)N1Cc2cc(C(=O)N3CCOCC3)nc(-c3cccc(-c4ccc(C#N)cc4)c3)c2[C@H]1CCO
  -3.5, 2, -1
#58 N#Cc1cccc(-c2ccc([C@@H]3[C@@H](CO)N4CCCCN(Cc5ccccc5F)C[C@H]34)cc2)c1
  0.6*, -34*, -33*
#59 CC(=O)N1[C@@H]2c3ccc(-c4cccc(F)c4)c(=O)n3C[C@H]1[C@H](CO)[C@H]2C(=O)NCCCN(C)C
  4.4, -4, 0
#60 C[C@@H]1CN([C@H](C)CO)C(=O)Cc2cc(NC(=O)CCN3CCOCC3)ccc2O[C@@H]1CN(C)C(=O)NC1CCCCC1
  -1.2, 3, 1
#61 Cc1ccc(-c2cnc3c(c2)C(=O)N([C@H](C)CO)C[C@H](C)[C@H](CN(C)C(=O)Cc2ccccc2)O3)cc1
  -12, 16, 4
#62 O=C(C[C@@H]1C[C@@H]2c3cc(NC(=O)NC4CCCC4)ccc3O[C@@H]2[C@H](CO)O1)NCc1ccc(-c2ccccc2)cc1
  5.4, -3, 3
#63 O=C(C[C@@H]1C[C@@H]2c3cc(NS(=O)(=O)c4ccc(F)cc4)ccc3O[C@@H]2[C@H](CO)O1)NCc1cccnc1
  2.8, 6, 9
#64 O=C(Cc1cccnc1)N[C@@H]1CC[C@H](CCNS(=O)(=O)c2ccccc2Cl)O[C@H]1CO
  2.9, -2, 1
#65 Cc1noc(C)c1NC(=O)N(C)C[C@H]1OCCCC[C@@H](C)Oc2ccc(N(C)C)cc2C(=O)N([C@H](C)CO)C[C@@H]1C
  -3.2, 7, 4
#66 C[C@@H]1CN([C@@H](C)CO)C(=O)c2cc(N(C)C)ccc2O[C@@H](C)CCCCO[C@@H]1CN(C)C(=O)CCCN(C)C
  -0.9, 6, 5
#67 N#Cc1ccc(-c2ccc([C@@H]3[C@@H]4CN(S(=O)(=O)Cc5ccccc5)C[C@H]3N4)cc2)cc1
  ., ., ?
#68 O=C(C[C@@H]1CC[C@@H]2[C@H](COC[C@@H](O)CN2Cc2nccs2)O1)NCc1ccc(F)cc1
  3.2, 1, 4
#69 C[C@@H]1CCCCO[C@@H](CN(C)C(=O)c2ccncc2)[C@H](C)CN([C@H](C)CO)C(=O)c2cc(N(C)C)ccc2O1
  -1.1, 7, 6
#70 CCC(=O)N1[C@H](CO)[C@@H]2c3ccccc3N(S(=O)(=O)c3ccc(F)cc3)C[C@@H]21
  3.3, -1, 2
#71 COCCNC(=O)[C@H]1[C@H](CO)[C@H]2Cn3c(ccc(C4=CCCCC4)c3=O)[C@@H]1N2C(=O)C1CCC1
  4.5, 11, 15
#72 O=C(Cc1cccnc1)N1CC(=O)N2[C@H](CO)[C@H](c3ccc(C#CC4CCCCC4)cc3)[C@@H]2C1
  -2.4, 4, 1
#73 CNC[C@@H]1OCCCC[C@@H](C)Oc2ccc(NC(=O)C3CCCCC3)cc2C(=O)N([C@@H](C)CO)C[C@H]1C
  -1.0, -4, -5
#74 COc1ccccc1S(=O)(=O)N1CC[C@H]2[C@H](CO)Nc3ccc(-c4ccccc4F)cc3[C@H]21
  3.5, 7, 11

Some of the compounds tested; rates above refer to the full screens.
